Rango-impB inh – prevents formation of the Rango-importin beta complex. Q14974. Rango CFP/YFP FRET sensor + importin beta, 45 min. Potency, µM (doses to about 92.2 µM), for the others: top-dose inhibition of complex formation. actives 0.031% (n = 340,000). AID 540263; active = rising FRET ratio curve, often small or poorly fitted; inconclusive = mostly compound fluorescence or quenching in the first reads; inactive = flat curves in all reads;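 further: potency means the concentration at half of the fitted maximal effect; 0% = DMSO wells and 100% = buffer wells lacking importin beta; nearly all actives have a fitted effect of over 15% in size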
Target sequence (Q14974 whole entry, looked up): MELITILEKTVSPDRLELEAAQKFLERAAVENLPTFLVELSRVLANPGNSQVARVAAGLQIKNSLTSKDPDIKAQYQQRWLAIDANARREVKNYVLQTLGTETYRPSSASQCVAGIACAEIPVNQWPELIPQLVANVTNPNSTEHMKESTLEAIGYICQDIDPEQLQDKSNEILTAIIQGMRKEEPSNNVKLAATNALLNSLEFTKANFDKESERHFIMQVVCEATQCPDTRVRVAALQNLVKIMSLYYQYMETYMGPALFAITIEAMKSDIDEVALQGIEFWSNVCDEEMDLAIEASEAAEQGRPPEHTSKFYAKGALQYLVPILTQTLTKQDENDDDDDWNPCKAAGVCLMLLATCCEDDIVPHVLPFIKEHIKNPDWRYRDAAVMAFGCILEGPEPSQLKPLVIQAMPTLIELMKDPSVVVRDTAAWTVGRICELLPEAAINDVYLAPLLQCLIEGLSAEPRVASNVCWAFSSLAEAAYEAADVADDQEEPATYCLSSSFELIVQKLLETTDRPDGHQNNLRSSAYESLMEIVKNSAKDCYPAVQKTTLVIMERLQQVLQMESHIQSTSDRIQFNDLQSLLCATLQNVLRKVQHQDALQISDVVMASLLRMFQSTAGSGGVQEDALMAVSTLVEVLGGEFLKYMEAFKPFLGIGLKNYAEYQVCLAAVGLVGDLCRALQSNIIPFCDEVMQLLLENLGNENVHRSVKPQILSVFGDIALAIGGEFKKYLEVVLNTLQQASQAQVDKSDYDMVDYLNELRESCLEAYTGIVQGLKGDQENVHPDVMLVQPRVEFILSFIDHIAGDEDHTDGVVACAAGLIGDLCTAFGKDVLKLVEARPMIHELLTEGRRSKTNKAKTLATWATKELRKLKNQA
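Inhibition scored from the CFP 486 nm/YFP 530 nm FRET ratio 45 min after adding 0.125 microM importin beta to 50 nM Rango biosensor preincubated 5 min with compound (room temperature, PBS with DTT, Tween-20, BSA). No-importin wells as positive control.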
GLA inh pH 4.5 – blocks human alpha-galactosidase A at pH 4.5; purified enzyme, 4-MU-alpha-Gal fluorescence, pH 4.5; activity change, negative = inhibition, % at 105 µM; 230,000 tested, under 10 active; AID 1467; inconclusive = small, poorly fitted or top-dose-only inhibition, or a rising curve; inactive = flat fitted curve, though single readings scatter; no compound was filed as active;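 further: 0% = full activity with enzyme and -100% = basal without enzyme; dose as in the result columns while the protocol names 77 µM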
miR-21 reporter – raises the signal of a miR-21 reporter | 340,000 tested, under 10 active | Potency, µM (series often up to 38.3 µM), for the others: at the top dose reporter change, positive = more light | HeLa miR-21 FLuc reporter, luciferase, 48 h; active = well fitted rising curve with a large enough effect; inconclusive = small, poorly fitted or top-dose-only effect; inactive = no such curve, though single readings can be large or run the other way;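 further: % of control where 0% means no effect; miR-21 action dims this reporter so a rising signal means less miR-21 action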
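HeLa miR-21-FLuc reporter line, endogenous miR-21; 2000 cells/well in DMEM/10% FBS; compound titration up to ~40uM final, 48 h, 37 degree Celsius; luciferase detection reagent, 15 min lysis, CCD luminescence.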
Rango dissoc inh – inhibition of RanGTP-driven Rango-importin beta dissociation | actives 0.071% (n = 340,000) | Potency, µM (top dose mostly 46.1 µM), inactives show top-dose activity change, negative = inhibition | Biochemical FRET Rango-importin beta, RanGTP-induced dissociation | AID 540253; active means falling FRET ratio curve, often poorly fitted, with flat reads before Ran was added; inconclusive means other falling curves, or compound fluorescence or quenching; inactive means flat or rising ratio curve;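 further: potency means the concentration at half of the fitted maximal effect; % of control where 0% means no effect; nearly all actives have a fitted effect of over 45% in size; -100% = wells without RanGTP and RCC1; the record marks most hits as doubtful in a second field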
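Rango/importin beta premix (0.1/0.25 uM final), PBS + 1 mM DTT + 0.02% Tween-20 + 0.1% BSA; cpd 5 min RT; FRET pre-read; + RanGTP-RCC1 (0.6 uM Ran, 2 mM GTP, 0.2 uM RCC1); 45 min RT; FRET post-read, ex 430, em 486/530 nm.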
Starred values were filed as active, the others as inactive; ? = inconclusive; nt = not tested or not shown; [ ] = remark or other dose. A portion of the library, so the mix of outcomes need not match the whole.

SMILES	Rango-impB inh	GLA inh pH 4.5	miR-21 reporter	Rango dissoc inh
COc1ccc(NC(=O)N2CCC(n3nnc4cc(C)ccc43)CC2)cc1	-2.7%	3	-14%	7%
Cc1cc(=O)oc2cc(OCC(=O)OCC(=O)N(C)C3CCS(=O)(=O)C3)ccc12 (stereo not given)	3.2%	0	1%	-21%
COc1ccc(C(CC(=O)N2CCCCC2)C(C)C)cc1 (stereo not given)	0.7%	-2	-1%	6%
COC(=O)c1ccc(COC(=O)C2CCN(S(=O)(=O)c3ccccc3C(=O)OC)CC2)cc1	-4.3%	nt	nt	0%
CN(C(=O)COC(=O)c1c2c(nc3ccccc13)CCCC2)c1c(N)n(Cc2ccccc2)c(=O)[nH]c1=O	2.5%	nt	nt	5%
Clc1ccccc1CN(Cc1ccccc1)c1ncnc2nc[nH]c12	3.5%	-9	-4%	1%
Nc1nc(SCc2ccc(Cl)cc2)ns1	-0.3%	7	-52%	-7%
CC(C)[C@H](NC(=O)NC1CCCc2ccccc21)C(=O)O (stereo not given in full)	-2.1%	6	-2%	3%
CC1Cc2cc(-c3csc(NC(=O)CCl)n3)ccc2N1C(=O)C1CC1 (stereo not given)	5.2%	nt	nt	2%
CN(C)C(=O)NC(Nc1ccc(Cl)cc1Cl)C(Cl)(Cl)Cl (stereo not given)	1.3%	-1	6%	0%
CCOc1ccc(S(=O)(=O)/N=C(/Nc2ccc(C(C)=O)cc2)c2ccccc2)cc1	0.1%	nt	nt	11%
CC(Nc1ccccc1)c1cccnc1 (stereo not given)	-4.0%	16	-2%	0%
COc1ccc(-c2cc(C(=O)NCCCN3CCCC3=O)c3ccccc3n2)cc1OC	1.2%	nt	nt	-14%
Cc1noc(C)c1COc1ccc(C(=O)N2CCCC(C(N)=O)C2)cc1 (stereo not given)	?	nt	1%	-5%
CN1C(=O)/C(=C/c2cccc([N+](=O)[O-])c2)C(=O)N1c1ccccc1	8.5%	nt	-17%	9%
COc1ccc(N2CCN(C(CNC(=O)C(=O)NC3CCCC3)c3ccco3)CC2)cc1 (stereo not given)	0.2%	nt	nt	-3%
COc1cccc(C(=O)/C=C/Nc2ccc(S(=O)(=O)Nc3cc(OC)nc(OC)n3)cc2)c1	?	nt	-30%	?
CC(=O)N(Cc1cccs1)C1CCOC(C)(C)C1 (stereo not given)	-1.0%	3	-8%	0%
COc1ccccc1N1CCN(C(=O)Cn2nc(C(F)(F)F)c3c2CCC3)CC1	2.1%	5	0%	6%
COc1ccc(-c2nc3c4ccccc4[nH]c(=O)n3n2)cc1	-2.4%	8	-61%	-27%
CN(c1ccccc1)S(=O)(=O)c1ccc(NC(=O)C2CCCCC2C(=O)O)cc1 (stereo not given)	-4.0%	0	-3%	11%
CCCN(CC(=O)Nc1ccccc1C)C(=O)/C=C/c1ccc(S(=O)(=O)N2CCCCCC2)cc1	-2.0%	nt	nt	-5%
CC1=C(C(=O)OCCOc2ccccc2)C(c2coc3ccccc3c2=O)C2=C(CCCC2=O)N1 (stereo not given)	?	5	2%	?
COc1ccc(OC)c(Nc2ncnc3c2cnn3-c2cccc(C)c2)c1	-2.6%	4	7%	8%
COC(=O)C1(Cc2cc(-c3cccc(Br)c3)no2)CCN(C(=O)OC(C)(C)C)CC1	0.0%	nt	-1%	13%
CC(C)(C)c1cc(OC(=O)C2CCCC2)ccc1O	2.8%	nt	-1%	-15%
O=C(O)CC1Sc2nnc(COc3ccc(Cl)cc3)n2N=C1c1ccccc1 (stereo not given)	-2.4%	nt	3%	8%
CCc1nc(SCC(=O)N2CCN(C(=O)c3ccco3)CC2)c2c3c(sc2n1)CCCC3	0.7%	-17	2%	-1%
O=C(NCc1c(F)cccc1F)c1cc(COc2c(F)cccc2F)on1	?	3	-43%	0%
Cc1c(C(=O)N2CCOCC2)sc(NC(=O)c2ccc([N+](=O)[O-])cc2)c1C#N	-2.0%	nt	6%	7%
CCN(CCNC(=O)C1CCC(=O)N1Cc1ccc(C)cc1)c1ccccc1 (stereo not given)	1.2%	0	-4%	3%
COc1ccccc1NC(=S)NCCSc1ccc(C)cc1	-0.4%	4	-2%	-4%
O=C(CSCc1ccc(Cl)cc1)N/N=C/c1ccc(OCC(=O)Nc2ccccc2)cc1	-2.1%	-2	16%	-3%
CN(C)CCCNc1nc(N)c([N+](=O)[O-])c(NCc2ccccc2)n1	?	nt	-1%	-4%
Cn1c2c(c(=O)n(C)c1=O)C(C(F)(F)F)(C(F)(F)F)N=C(C1CCCCC1)N2	-0.1%	-17	-1%	-14%
Cc1ccc(C(=O)c2ccc([N+](=O)[O-])cc2)cc1	-1.3%	0	-3%	3%
CCC(C)NC(=O)C1c2cc(OC)c(OC)cc2C(=O)N(C)C1c1cccs1 (stereo not given)	0.5%	-15	1%	1%
Cc1ccc(N=Nc2c(N)[nH]n3c(=O)c4c(nc23)CCCC4)cc1	nt	2	0%	nt
CCC(=O)c1c(NC(CC)CO)cc(C)oc1=O (stereo not given)	0.6%	-4[21.1 µM]	1%	7%
CCOC(=O)c1cc(NC(=O)CSc2nnc(CN3CCOCC3)n2C)ccc1Cl	-1.0%	nt	nt	-18%
COc1ccc(OC)c(NC(=O)COC(=O)CNC(=O)c2ccc(OC)c(OC)c2)c1	-2.1%	3	2%	16%
COc1cccc(CSc2nc3cc4c(cc3cc2C)OCCO4)c1	2.0%	-2	-11%	2%
COc1ccccc1C(=O)Nc1ccnn1C1CCN(C(=O)C2CCOC2)CC1 (stereo not given)	0.7%	nt	-3%	15%
Cc1ccc(OC[C@H](O)[C@H](C)NC(C)C)c2c1CCC2	4.1%	-4	nt	5%
CCc1nnc(SCc2ccc(OC(C)C)cc2)n1N	0.9%	-25	-2%	1%
Cc1ccc(CNC(=O)COC(=O)c2ccc(S(=O)(=O)N3CCCCCC3)cc2)cc1	2.8%	nt	nt	22%
CCOC(=O)N1CCN(C(=O)CCn2c(=S)[nH]c3ccsc3c2=O)CC1	-0.6%	-1[21.1 µM]	2%	-15%
Cc1ccc(C)c(OCc2ccc(C(=O)N3N=C(C(F)F)CC3(O)C(F)F)o2)c1 (stereo not given)	-2.1%	-3	7%	0%
Cc1ccnn1CCC(=O)N1CCCC(CCC(=O)N2CCN(c3ccccn3)CC2)C1 (stereo not given)	2.3%	-7	0%	0%
Cc1cccc(C(=O)NC(=S)Nc2ccc(S(=O)(=O)N(C)c3ccccc3)cc2)c1	-1.0%	5	5%	2%
COc1ccc(CN(CCC(c2ccccc2)c2ccco2)C(=O)c2ccco2)cc1 (stereo not given)	1.2%	-8	-2%	-3%
Cc1cc(C(=O)Nc2nnc(C3CCCCC3)s2)no1	-2.8%	8	-35%	-1%
CC(C)Cn1c(CCNC(=O)c2ccco2)nc2ccccc21	-0.2%	nt	-32%	7%
CC(C)C(=O)N1CCN(c2ccccc2NC(=S)NC(=O)Cc2ccccc2)CC1	?	nt	nt	-10%
CC(C(=O)N1CCCC1)N1CCN(c2ccccc2O)CC1 (stereo not given)	-1.2%	-19	-2%	8%
CC(C(=O)N1CCc2ccccc21)N(C)CC(=O)Nc1cccc(F)c1 (stereo not given)	-3.1%	nt	nt	-7%
CCOc1ccc(NC(=O)CN(C)CC(=O)Nc2ccc(F)c(F)c2F)cc1OCC	1.0%	-9	-4%	-1%
CCOC(=O)C(=O)Cc1cccnn1	-4.6%	nt	nt	1%
CN1C[C@@H]2[C@@H]3C(=O)N(Cc4ccccc4)C(=O)[C@@H]3[C@](C)(C1=O)N2C(=O)c1ccccc1	0.7%	nt	nt	2%
Cc1ccc(NC(=O)CSc2nc3ccccc3c(=O)[nH]2)cc1[N+](=O)[O-]	4.8%	nt	nt	7%

Going on with the list:
SMILES	Rango-impB inh	GLA inh pH 4.5	miR-21 reporter	Rango dissoc inh
Cc1ccc(N2C(=O)N3[C@H](c4ccc(Br)cc4)[C@@H]4C(=O)N(C(C)(C)C)C(=O)[C@@H]4[C@]3(C)C2=O)cc1	-0.1%	nt	5%	-7%
COc1ccc(C(=O)NC2=NCCS2)cc1S(=O)(=O)N1CCCCC1C (stereo not given)	?	-5	-8%	-9%
CCC(C)(C)NC(=O)C(c1ccc(OC)cc1)N(C(=O)CCC(=O)Nc1cc(C)on1)C(C)(C)C (stereo not given)	-0.3%	nt	-2%	-7%
COC(=O)c1ccc(-n2c(C)cc(C(=O)CCl)c2C)cc1	10%	2	12%	?
Cc1cccc(CS(=O)(=O)c2ncc(Cl)c(C(=O)NCc3ccccc3)n2)c1	-3.2%	nt	?	3%
O=C(c1ccoc1)N1CCCC(Nc2ccc(F)c(F)c2)C1 (stereo not given)	-2.9%	nt	-12%	2%
CC(C)=CCN1CCN(Cc2ccoc2)CC1CCO (stereo not given)	-4.0%	-9	1%	-2%
O=C(NCCCn1ccnc1)c1ccc(-c2cccc(Cl)c2Cl)o1	0.5%	nt	nt	-10%
COc1ccc(NC(=O)Cn2c(CCC(=O)O)ccc2-c2ccccc2)cc1	-1.2%	nt	-3%	0%
O=c1c2ccccc2nnn1COc1ccc(Cl)cc1Br	5.3%	-6	-21%	1%
O=S(=O)(Nc1nnc(C2CCCCC2)s1)c1ccc(F)cc1	4.5%	nt	0%	-3%
Cn1c(=O)c(/C(N)=N/OC(=O)c2ccccc2)cn(-c2ccccc2)c1=O	5.8%	1	0%	21%
COc1ccc(C[C@@H]2CN3C(=NC[C@@H]3C)N2C[C@H](C)NC(=O)CCC2CCCCC2)cc1	-1.1%	7	-2%	4%
CCOC(=O)C1=C(CNCc2ccccc2Cl)NC(=O)NC1c1cccc([N+](=O)[O-])c1 (stereo not given)	-1.8%	-18	-5%	5%
CN(C)c1ccc(N=Nc2ccc(S(N)(=O)=O)cc2)cc1	0.0%	nt	-71%	9%
CCOC(=O)C(C)Oc1ccc(=O)n(-c2ccccc2)n1 (stereo not given)	0.4%	5	-1%	3%
COC(=O)c1nn(-c2ccc(OC)cc2)c(=O)cc1Oc1ccccc1	2.7%	-4	-3%	13%
O=C1CN(C(=O)CNC(=O)c2ccccc2Cl)c2ccccc2N1	-1.2%	1	-2%	-1%
O=C(CSc1nccc(=O)[nH]1)NCc1ccc(Cl)cc1	-4.8%	6	-4%	1%
COc1ccc(NCC(=O)Nc2cc(S(=O)(=O)N3CCOCC3)ccc2N2CCOCC2)c(OC)c1	-1.1%	3	0%	7%
CN1C(=S)SC2CS(=O)(=O)CC21 (stereo not given)	0.1%	4	1%	14%
CC(C)(C)NC(=O)CN(C(=O)CCC(=O)Nc1nccs1)c1ccc(F)cc1	0.4%	nt	2%	-7%
COc1cc(C2C=C(c3cccs3)Nc3ncnn32)cc(OC)c1OC (stereo not given)	?	-10	3%	?
COc1ccc(CN(C(=O)c2cccs2)c2ccccc2C(=O)O)cc1	4.5%	0	1%	26%
Cc1ccc2c(c1)-c1nc3ccccc3cc1C2=NC1CCCCC1	3.3%	0	-61%	0%
COc1ccc(-n2nc(C(=O)NCC(=O)NCCCN3CCN(C)CC3)c3ccccc3c2=O)cc1OC	-4.4%	nt	0%	-10%
COc1ccc(CCNC(=O)CCn2cccc2)cc1OC	-3.8%	-9	-4%	1%
CN1CCC(=O)N(CCSc2ccc(Br)cc2)CC1	0.4%	4	-31%	-7%

Among those listed so far, six have a nitro group on carbon:
SMILES	Rango-impB inh	GLA inh pH 4.5	miR-21 reporter	Rango dissoc inh
CN1C(=O)/C(=C/c2cccc([N+](=O)[O-])c2)C(=O)N1c1ccccc1	8.5%	nt	-17%	9%
Cc1c(C(=O)N2CCOCC2)sc(NC(=O)c2ccc([N+](=O)[O-])cc2)c1C#N	-2.0%	nt	6%	7%
CN(C)CCCNc1nc(N)c([N+](=O)[O-])c(NCc2ccccc2)n1	?	nt	-1%	-4%
Cc1ccc(C(=O)c2ccc([N+](=O)[O-])cc2)cc1	-1.3%	0	-3%	3%
Cc1ccc(NC(=O)CSc2nc3ccccc3c(=O)[nH]2)cc1[N+](=O)[O-]	4.8%	nt	nt	7%
CCOC(=O)C1=C(CNCc2ccccc2Cl)NC(=O)NC1c1cccc([N+](=O)[O-])c1 (stereo not given)	-1.8%	-18	-5%	5%

High-throughput results (PubChem BioAssay)
